HIV Env fusion – inhibitors of HIV Env-mediated cell fusion | HeLa-JRFL Env/CEM21 cell fusion, luciferase | inhibition, % at 12.3 µM | 1.1% of 360,000 active;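 active = mean replicate inhibition score of at least 50 and every replicate individually at or above 50; inconclusive = only one of the two criteria met; inactive = mean below 50 and not all replicates reaching 50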;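 also: 0% = plate neutral controls and 100% = maraviroc near 300 nM; one replicate is shown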
Yeast UUG start – alters start codon recognition fidelity in yeast; S. cerevisiae UUG-firefly luciferase reporter, luminescence/redox ratio; activity score, % at 18.7 µM; 0.13% of 350,000 active;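 active = replicate mean at a twofold rise or more, about +100% in these data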;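 also: firefly luciferase made from a UUG start codon reports start codon fidelity; reporter light over untreated wells divided by growth signal over untreated wells; some hits fall short of that in this replicate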
An asterisk follows results filed as active; ? = inconclusive; ! = a repeat was not active; [ ] = remark or other dose.

HIV Env fusion | Yeast UUG start | SMILES
-11.3[16.7 µM] | 12.6 | CCC(=O)N[C@@H]1C=C[C@@H](CC(=O)NCC2CCCCC2)O[C@H]1CO
-26.0[16.7 µM] | 21.0 | COc1ccccc1S(=O)(=O)N[C@@H]1CC[C@@H](CCNC(=O)C2CCCC2)O[C@@H]1CO
11.3[16.7 µM] | -2.0 | CN(C)CC(=O)N[C@H]1CC[C@@H](CCNC(=O)C2CCC2)O[C@@H]1CO
13.7[16.7 µM] | -3.7 | COc1ccc(S(=O)(=O)Nc2ccc3c(c2)C(=O)N([C@H](C)CO)C[C@@H](C)[C@@H](CN(C)Cc2ccc(C(=O)Nc4ccccc4N)cc2)O3)cc1
-62.1[16.7 µM] | -1.9 | C[C@H](CO)N1C[C@H](C)[C@H](CN(C)S(=O)(=O)c2ccc(F)cc2)OCCCC[C@H](C)Oc2ccc(NC(=O)Nc3cccc4ccccc34)cc2C1=O
0.6[16.7 µM] | -8.1 | COc1ccc(NC(=O)N(C)C[C@@H]2OCCCC[C@@H](C)Oc3ccc(NC(=O)Nc4ccccc4)cc3C(=O)N([C@H](C)CO)C[C@@H]2C)cc1
12.9[16.7 µM] | -33.2 | O=C(C[C@@H]1C=C[C@@H](NC(=O)NC2CCCCC2)[C@@H](CO)O1)NCc1ccc(Cl)cc1
1.6[16.7 µM] | -3.6 | O=C(Nc1ccc(C(F)(F)F)cc1)N[C@H]1CC[C@H](CC(=O)N2CCCCC2)O[C@@H]1CO
-4.8[16.7 µM] | -9.2 | Cc1noc(C)c1NC(=O)NCC[C@H]1CC[C@H](NC(=O)Cc2cccnc2)[C@H](CO)O1
-5.4[16.7 µM] | -1.5 | C[C@@H]1CN([C@H](C)CO)C(=O)c2cccc(NC(=O)Nc3ccccc3)c2O[C@@H]1CN(C)C
-5.4[16.7 µM] | -16.6 | C[C@H]1CN([C@@H](C)CO)C(=O)Cc2cc(NC(=O)C3CC3)ccc2O[C@@H]1CN(C)Cc1ccccc1
-1.1[16.7 µM] | -19.1 | COc1ccccc1CNC(=O)C[C@@H]1C=C[C@H](NC(C)=O)[C@@H](CO)O1
0.2[16.7 µM] | 2.6 | COc1ccc(CN(C)C[C@@H]2OCCCC[C@H](C)Oc3ccc(NC(=O)Nc4ccc5c(c4)OCO5)cc3C(=O)N([C@H](C)CO)C[C@H]2C)cc1
1.2[16.7 µM] | -11.9 | C[C@H](CO)N1C[C@H](C)[C@H](CN(C)S(=O)(=O)c2cccs2)OCCCC[C@H](C)Oc2ccc(NC(=O)Nc3ccc4c(c3)OCO4)cc2C1=O
-13.7[16.7 µM] | 8.5 | Cc1ccc(S(=O)(=O)NCC[C@H]2CC[C@H](NC(=O)Nc3cccc(F)c3)[C@@H](CO)O2)cc1
-11.1[16.7 µM] | -4.2 | CCCN1C[C@@H](C)[C@H](OC)CN(C)C(=O)c2ccc(NS(=O)(=O)c3ccccc3)cc2OC[C@@H]1C
10.5[16.7 µM] | -2.3 | CC(C)NC(=O)N[C@H]1CC[C@H](CC(=O)N2CCCCC2)O[C@H]1CO
-101.6[16.7 µM] | 10.0 | C[C@@H]1CCCCO[C@H](CN(C)Cc2ccc3c(c2)OCO3)[C@@H](C)CN([C@@H](C)CO)C(=O)c2cc(NC(=O)C3CCCCC3)ccc2O1
-19.1[16.7 µM] | -13.1 | C[C@@H]1CN([C@H](C)CO)C(=O)c2cccc(NC(=O)C3CCOCC3)c2O[C@@H]1CN(C)C(=O)NC1CCCCC1
-4.3[16.7 µM] | -11.7 | COc1ccc(NC(=O)N[C@H]2CC[C@@H](CCNC(=O)CCN3CCCCC3)O[C@H]2CO)cc1
-12.9[16.7 µM] | 5.3 | COc1ccc(C#Cc2ccc3c(c2)O[C@@H](CN(C)C)[C@@H](C)CN([C@@H](C)CO)S3(=O)=O)cc1
-4.2[16.7 µM] | -6.6 | O=C(C[C@H]1CC[C@H]2NC[C@@H](O)COC[C@@H]2O1)Nc1nccs1
22.0[16.7 µM] | 22.7 | CC(C)NC(=O)N(C)C[C@@H]1Oc2ncc(C#CCc3ccccc3)cc2C(=O)N([C@@H](C)CO)C[C@@H]1C
0.8[16.7 µM] | 8.0 | CCCN(C)C[C@H]1OCCCC[C@@H](C)Oc2ccc(N(C)C)cc2C(=O)N([C@H](C)CO)C[C@@H]1C

As a working copy, part of the list above:
HIV Env fusion | Yeast UUG start | SMILES
0.2[16.7 µM] | 2.6 | COc1ccc(CN(C)C[C@@H]2OCCCC[C@H](C)Oc3ccc(NC(=O)Nc4ccc5c(c4)OCO5)cc3C(=O)N([C@H](C)CO)C[C@H]2C)cc1
1.2[16.7 µM] | -11.9 | C[C@H](CO)N1C[C@H](C)[C@H](CN(C)S(=O)(=O)c2cccs2)OCCCC[C@H](C)Oc2ccc(NC(=O)Nc3ccc4c(c3)OCO4)cc2C1=O
-13.7[16.7 µM] | 8.5 | Cc1ccc(S(=O)(=O)NCC[C@H]2CC[C@H](NC(=O)Nc3cccc(F)c3)[C@@H](CO)O2)cc1
-11.1[16.7 µM] | -4.2 | CCCN1C[C@@H](C)[C@H](OC)CN(C)C(=O)c2ccc(NS(=O)(=O)c3ccccc3)cc2OC[C@@H]1C
10.5[16.7 µM] | -2.3 | CC(C)NC(=O)N[C@H]1CC[C@H](CC(=O)N2CCCCC2)O[C@H]1CO
-101.6[16.7 µM] | 10.0 | C[C@@H]1CCCCO[C@H](CN(C)Cc2ccc3c(c2)OCO3)[C@@H](C)CN([C@@H](C)CO)C(=O)c2cc(NC(=O)C3CCCCC3)ccc2O1
-19.1[16.7 µM] | -13.1 | C[C@@H]1CN([C@H](C)CO)C(=O)c2cccc(NC(=O)C3CCOCC3)c2O[C@@H]1CN(C)C(=O)NC1CCCCC1
-4.3[16.7 µM] | -11.7 | COc1ccc(NC(=O)N[C@H]2CC[C@@H](CCNC(=O)CCN3CCCCC3)O[C@H]2CO)cc1

Going on with the list:
HIV Env fusion | Yeast UUG start | SMILES
5.3[16.7 µM] | -11.7 | C[C@H]1CN([C@@H](C)CO)C(=O)c2cccc(NC(=O)Nc3ccccc3)c2O[C@@H]1CN(C)C(=O)Nc1ccccc1
-123.8[16.7 µM] | -3.8 | C[C@H](CO)N1C[C@H](C)[C@H](CN(C)S(=O)(=O)c2ccc(Cl)cc2)OCCCC[C@H](C)Oc2ccc(NS(=O)(=O)c3ccccc3)cc2C1=O
14.5[16.7 µM] | 21.2 | C[C@@H]1CN([C@H](C)CO)S(=O)(=O)c2ccc(C#CCC3CCCC3)cc2O[C@H]1CN(C)C
-17.0[16.7 µM] | -7.8 | CCS(=O)(=O)Nc1ccc2c(c1)C(=O)N(C)[C@@H]1CC[C@H](CC(=O)NC)O[C@@H]1CO2
2.9[16.7 µM] | 11.9 | CCCC(=O)Nc1ccc2c(c1)C(=O)N(C)[C@@H]1CC[C@@H](CC(=O)NCC(F)(F)F)O[C@H]1CO2
-1.9[16.7 µM] | 7.5 | C[C@H]1CN([C@@H](C)CO)S(=O)(=O)c2ccc(C3=CCCCC3)cc2O[C@H]1CN(C)C(=O)CC1CC1
0.7[16.7 µM] | -0.3 | O=C(C[C@H]1C=C[C@@H](NC(=O)c2ccccn2)[C@@H](CO)O1)NCc1cccc(F)c1
14.9[16.7 µM] | -1.1 | Cc1noc(C)c1NC(=O)Nc1ccc2c(c1)C(=O)N([C@H](C)CO)C[C@@H](C)[C@@H](CN(C)C)OCCCC[C@@H](C)O2
1.3[16.7 µM] | 13.0 | C[C@H]1CCCCO[C@@H](CN(C)CC2CCCCC2)[C@@H](C)CN([C@@H](C)CO)C(=O)c2cc(NC(=O)Nc3ccccc3)ccc2O1
-90.9[16.7 µM] | 5.0 | C[C@@H]1CN([C@@H](C)CO)C(=O)Cc2cc(NC(=O)Nc3ccc(C(F)(F)F)cc3)ccc2O[C@@H]1CN(C)C(=O)Nc1ccc2c(c1)OCO2
-28.0[16.7 µM] | -3.0 | C[C@H]1CCCCO[C@H](CN(C)S(=O)(=O)c2ccccc2)[C@@H](C)CN([C@@H](C)CO)C(=O)c2cc(NC(=O)Nc3ccccc3)ccc2O1
55.1*![16.7 µM] | -2.0 | COc1ccc(S(=O)(=O)N(C)C[C@@H]2Oc3ncc(/C=C/c4ccccc4)cc3C(=O)N([C@H](C)CO)C[C@@H]2C)cc1
6.8[16.7 µM] | 12.6 | COc1ccc(CN(C)C[C@@H]2OCCCC[C@H](C)Oc3ccc(NC(=O)CCC(F)(F)F)cc3C(=O)N([C@@H](C)CO)C[C@H]2C)cc1
7.4[16.7 µM] | 3.6 | C[C@@H]1CN([C@@H](C)CO)C(=O)Cc2cc(NC(=O)C3CC3)ccc2O[C@@H]1CN(C)S(=O)(=O)c1ccccc1
5.6[16.7 µM] | 27.8 | O=C(C[C@@H]1C[C@@H]2c3cc(NC(=O)C4CCC4)ccc3O[C@@H]2[C@H](CO)O1)NCc1cc(F)ccc1F
7.0[16.7 µM] | 19.2 | C[C@@H]1CN([C@H](C)CO)C(=O)c2cc(NC(=O)CCCN(C)C)ccc2O[C@@H](C)CCCCO[C@@H]1CN(C)C(=O)c1ccccc1
10.0[16.7 µM] | 5.3 | CN1C(=O)c2cc(NC(=O)Cc3ccccc3)ccc2OC[C@H]2O[C@@H](CC(=O)NCc3ccc(Cl)cc3)CC[C@H]21
-11.9[16.7 µM] | -4.9 | C[C@@H]1CN([C@H](C)CO)C(=O)Cc2cc(NC(=O)Nc3ccc(F)cc3)ccc2O[C@H]1CN(C)CC1CC1
-24.4[16.7 µM] | 5.6 | C[C@@H]1CN([C@H](C)CO)C(=O)c2cc(-c3cccc(F)c3)cnc2O[C@H]1CN(C)C(=O)Nc1cc(F)ccc1F
-1.7[16.7 µM] | 31.4 | C[C@@H](O)C#Cc1cnc2c(c1)C(=O)N([C@@H](C)CO)C[C@H](C)[C@H](CN(C)C(=O)Nc1ccc(C(F)(F)F)cc1)O2
-8.8[16.7 µM] | 21.3 | CC(C)CC#Cc1ccc2c(c1)O[C@H](CN(C)C(=O)Nc1ccccc1F)[C@@H](C)CN([C@@H](C)CO)S2(=O)=O
-0.1[16.7 µM] | 9.0 | C[C@@H]1CN([C@H](C)CO)C(=O)c2cccc(NS(=O)(=O)c3ccc(Cl)cc3)c2O[C@@H]1CN(C)Cc1ccc(-c2ccccc2)cc1
? | 1.3 | C[C@@H]1CN([C@H](C)CO)C(=O)c2cc(NS(=O)(=O)c3cn(C)cn3)ccc2O[C@@H](C)CCCCO[C@H]1CN(C)C(=O)Nc1ccc(F)cc1
-0.9[16.7 µM] | -13.6 | C[C@@H]1CN([C@H](C)CO)C(=O)c2cc(C#Cc3ccccc3F)cnc2O[C@@H]1CN(C)C(=O)Cc1cccnc1
-14.0[16.7 µM] | 10.4 | CCC(=O)N(C)C[C@H]1Oc2ncc(Br)cc2C(=O)N([C@H](C)CO)C[C@@H]1C
-6.3[16.7 µM] | -3.1 | C[C@@H]1CN([C@@H](C)CO)C(=O)c2cc(-c3ccc(F)cc3)cnc2O[C@@H]1CN(C)C(=O)NC1CCCC1
7.5[16.7 µM] | 4.9 | C/C=C/c1cnc2c(c1)C(=O)N([C@@H](C)CO)C[C@H](C)[C@@H](CN(C)S(=O)(=O)c1ccccc1)O2
24.1[16.7 µM] | 3.8 | C[C@@H]1CN([C@H](C)CO)C(=O)Cc2cc(NS(=O)(=O)c3ccc(F)cc3)ccc2O[C@H]1CN(C)C(=O)Nc1cccc2ccccc12
1.5[16.7 µM] | -13.6 | C[C@H]1CN([C@@H](C)CO)C(=O)Cc2cc(NC(=O)CCCCCC(=O)Nc3ccccc3N)ccc2O[C@@H]1CN(C)C(=O)Nc1ccc(C(F)(F)F)cc1
-13.6[16.7 µM] | -14.0 | C=CC[C@H](O)c1ccc(O)c(F)c1
-3.1[16.7 µM] | -0.5 | C[C@H]1CN([C@@H](C)CO)C(=O)c2cc(NC(=O)NC3CCCCC3)ccc2O[C@@H]1CN(C)Cc1ccc2c(c1)OCO2
-7.0[16.7 µM] | -5.1 | C[C@@H]1CCCCO[C@H](CN(C)C(=O)NC2CCCCC2)[C@H](C)CN([C@@H](C)CO)C(=O)c2cc(NC(=O)c3ccncc3)ccc2O1
-9.1[16.7 µM] | 0.5 | CN(C)CCCNC(=O)C[C@@H]1CC[C@@H](NS(=O)(=O)c2ccccc2)[C@@H](CO)O1
6.9[16.7 µM] | -10.6 | COCCOC(=O)N1C(=O)[C@@]2(c3cc(C#CC4=CCCCC4)ccc31)[C@H](c1ccc(OCCO)cc1)N1[C@H](c3ccccc3)[C@H](c3ccccc3)OC(=O)[C@H]1[C@@H]2C(=O)N1CCc2cc(OC)c(OC)cc2C1
2.5[16.7 µM] | -4.9 | CCCC(=O)Nc1ccc2c(c1)C(=O)N(C)C[C@@H](OC)[C@@H](C)CN(C)[C@H](C)CO2
-4.7[16.7 µM] | -5.9 | C[C@@H]1CN([C@H](C)CO)S(=O)(=O)c2ccc(C#C[C@@H](C)O)cc2O[C@@H]1CN(C)C(=O)CC1CC1
2.4[16.7 µM] | 8.4 | C/C=C/c1ccc2c(c1)O[C@@H](CN(C)C(=O)c1ccccc1F)[C@H](C)CN([C@H](C)CO)S2(=O)=O
-3.8[16.7 µM] | -10.6 | CC(C)NC(=O)Nc1ccc2c(c1)C(=O)N([C@H](C)CO)C[C@H](C)[C@@H](CN(C)C(=O)Nc1ccc(F)cc1)O2
15.1[16.7 µM] | -17.6 | COc1cccc(-c2ccc([C@H]3[C@H](C#N)N(C(=O)Cc4ccccc4)[C@H]3CO)cc2)c1
-2.9[16.7 µM] | -7.8 | O=C(Cc1ccncc1)NCC[C@H]1CC[C@@H](NC(=O)Nc2ccc(Cl)cc2)[C@@H](CO)O1
-6.1[16.7 µM] | 4.7 | C[C@@H]1CN([C@H](C)CO)C(=O)c2cc(NS(=O)(=O)c3ccc(F)cc3)ccc2O[C@@H](C)CCCCO[C@H]1CN(C)S(=O)(=O)c1ccc(Cl)cc1

Bioassay records from PubChem BioAssay.

Some of the compounds tested; the hit share may differ from the screen's.
